GIV Gai3 FP – inhibitors of GIV GBA-motif binding to rat Galpha-i3; P08753; Galpha-i3/FITC-GIV peptide fluorescence polarization, 90 min; stronger effect = lower value; scaled: aluminum fluoride 0%, vehicle 100%; percent of control (FP), % (no concentration beside the values); 0.42% of 210,000 active; AID 1224905;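 active = replicate mean at 85% of control or lower, very high polarization wells dropped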;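 also: wells of about 15 µL received 100 nL stock; the first replicate is given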
Target sequence (P08753 whole entry, looked up): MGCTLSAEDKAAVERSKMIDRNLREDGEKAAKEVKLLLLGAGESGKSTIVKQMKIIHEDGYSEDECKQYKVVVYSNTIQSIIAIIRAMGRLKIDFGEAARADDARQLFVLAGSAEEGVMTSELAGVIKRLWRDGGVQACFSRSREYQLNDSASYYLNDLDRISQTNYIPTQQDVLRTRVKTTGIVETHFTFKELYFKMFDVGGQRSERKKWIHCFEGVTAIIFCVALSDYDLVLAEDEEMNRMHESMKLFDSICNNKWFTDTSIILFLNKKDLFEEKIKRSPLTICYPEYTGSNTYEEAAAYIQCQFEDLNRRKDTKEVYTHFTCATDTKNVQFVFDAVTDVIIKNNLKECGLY
HCMV UL50-53 inh – inhibitors of HCMV UL50-UL53 nuclear egress complex interaction. HTRF UL50-UL53 interaction, normalized percent inhibition. inhibition, % (no concentration beside the values). 0.15% of 190,000 active. AID 1918969;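 active = both replicates at 50% or more, plus weaker picks with an unusually low signal ratio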;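 also: stock transfer was 100 nL into about 20 µL; 0% = negative control wells and 100% = wells with untagged competitor protein; inactives centre near -12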
Sa growth 42C – S. aureus growth inhibition; S. aureus RN4220 growth, OD600, 20 h, 42 °C; stronger effect = lower value; relative growth, % (concentration not given with the values); 0.53% of 170,000 active; AID 720641;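 active = growth at 42 °C up to 50% and 20 or more points under that at 30 °C, or under 10% at both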;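 also: 300 nL library stock went into each well; scaled to the means of positive and negative controls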
Sa growth 42C second temp – second read-out of Sa growth 42C, no call of its own (marks repeat the call); relative growth, %; measured here: growth at 30 °C;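 optical density after 20 h as mean of two plates; 100% = untreated growth and lower means inhibition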
* marks the source's active call; other numbers are inactive results; & = joins results of further samples.

For COc1cc(NC(=O)C2Cc3ccccc3N2C(=O)c2ccccc2)cc(OC)c1 (stereo not drawn) the results were GIV Gai3 FP 102, Sa growth 42C 105 and Sa growth 42C second temp 92.
CC(C)OCCCNC(=O)CN1C(=O)CSc2ccc(S(=O)(=O)N3CCOCC3)cc21 was read as GIV Gai3 FP 96, Sa growth 42C 126 and Sa growth 42C second temp 91.
For CC(C)(CNC(=O)c1cc(=O)[nH]c2ccccc12)N1CCOCC1 the results were HCMV UL50-53 inh 20, Sa growth 42C 91 and Sa growth 42C second temp 99.
`CCOC(=O)c1sc(N2N=C(C)/C(=C\c3ccco3)C2=O)nc1C` gave GIV Gai3 FP 101, Sa growth 42C 121 and Sa growth 42C second temp 86.
COc1ccc(S(=O)(=O)Nc2c(C)nc3nc(C)[nH]n3c2=O)cc1 was read as GIV Gai3 FP 107, HCMV UL50-53 inh -3, Sa growth 42C 103 and Sa growth 42C second temp 97.
COc1ccccc1NC(=O)CCC(=O)N1N=C(c2ccc(Br)cc2)CC1c1ccccc1 (stereo not drawn) was read as GIV Gai3 FP 104 and HCMV UL50-53 inh -19.
Screening COc1cccc(-n2c(SCc3cccc(C)c3)nc3c([nH]c4ccccc43)c2=O)c1 returned GIV Gai3 FP 101, Sa growth 42C 116 and Sa growth 42C second temp 83.
Screening O=C(Cc1csc2ccc(Cl)cc12)OCc1ccccc1 returned GIV Gai3 FP 101, HCMV UL50-53 inh 3, Sa growth 42C 93 and Sa growth 42C second temp 98.
Screening CCc1ccc(C2CC(=O)Nc3c2c(C)nn3-c2nc3ccccc3s2)cc1 (stereo not drawn) returned GIV Gai3 FP 110, HCMV UL50-53 inh 5, Sa growth 42C 103 and Sa growth 42C second temp 97.
Screening COc1ccc(Cn2nc3n(c2=O)-c2ccccc2OC3)cc1 returned GIV Gai3 FP 101, HCMV UL50-53 inh 2, Sa growth 42C 95 and Sa growth 42C second temp 93.
For CC(C)(C)NC(=S)N/N=C/c1ccc(O)cc1 the results were GIV Gai3 FP 101, HCMV UL50-53 inh -35, Sa growth 42C 73 and Sa growth 42C second temp 67.
For OC(Cn1cncn1)(Cn1cncn1)c1ccc(F)cc1F the results were GIV Gai3 FP 105, HCMV UL50-53 inh -36&-25&8&-67, Sa growth 42C 93&101 and Sa growth 42C second temp 89&94.
For CC(C)(C)NC(=O)CCn1nc(-c2ccccc2)c2ccccc2c1=O the results were GIV Gai3 FP 101, HCMV UL50-53 inh -3, Sa growth 42C 83 and Sa growth 42C second temp 86.
O=C(O)Cn1cc(C(=S)N2CCCCC2)c2ccccc21 was read as GIV Gai3 FP 99, Sa growth 42C 95 and Sa growth 42C second temp 91.
Brc1ccc(-c2noc(CSc3ccc(-c4ccc5c(c4)OCO5)nn3)n2)cc1 was read as GIV Gai3 FP 105 and HCMV UL50-53 inh -11.
For Cc1cc(C)cc(NC(=O)Cn2c(=O)oc3cc(S(=O)(=O)N4CCCCCC4)ccc32)c1 the results were GIV Gai3 FP 107, HCMV UL50-53 inh -2, Sa growth 42C 111 and Sa growth 42C second temp 82.
`Cc1c(C)n(Cc2ccccc2)c2ccc(C(=O)OCCN3CCOCC3)cc12` gave HCMV UL50-53 inh 2, Sa growth 42C 107 and Sa growth 42C second temp 101.
`Nc1nc2c(c(=O)[nH]1)C(c1ccccc1)C1=C(N2)c2ccccc2C1=O` (stereo not drawn) gave GIV Gai3 FP 104, HCMV UL50-53 inh -68, Sa growth 42C 93 and Sa growth 42C second temp 79.
`COc1ccccc1/C=C1\CS/C(=C\c2ccccc2OC)C1=O` gave GIV Gai3 FP 241, Sa growth 42C 94 and Sa growth 42C second temp 77.
For Cc1nc(Cn2c(=O)oc3cc(S(=O)(=O)NCc4cccnc4)ccc32)no1 the results were GIV Gai3 FP 112 and HCMV UL50-53 inh -12.
For NC(=O)COC(=O)/C=C/c1ccc(Cl)cc1 the results were HCMV UL50-53 inh -39, Sa growth 42C 116 and Sa growth 42C second temp 102.
`O=c1[nH]cnc(O)c1Cc1c(O)nc[nH]c1=O` gave GIV Gai3 FP 103, HCMV UL50-53 inh -16, Sa growth 42C 103 and Sa growth 42C second temp 104.
For COc1ccccc1-c1cc2nc(C)c(CCC(=O)Nc3cc(C)ccc3C)c(C)n2n1 the results were GIV Gai3 FP 101, HCMV UL50-53 inh -24, Sa growth 42C 93 and Sa growth 42C second temp 95.
CC(=O)Nc1ncc2c(n1)CC(c1ccccc1)CC2=O (stereo not drawn) was read as GIV Gai3 FP 105, Sa growth 42C 102 and Sa growth 42C second temp 80.
O=C(c1ccccc1)n1cnc2ccccc21 was read as GIV Gai3 FP 104, HCMV UL50-53 inh -6&-35, Sa growth 42C 86 and Sa growth 42C second temp 102.
For O=C1C2C=CC=CC2=NC(=S)[N+]1=Nc1c(O)[nH]c2ccccc12 (stereo not drawn) the results were HCMV UL50-53 inh -52, Sa growth 42C 1.4* and Sa growth 42C second temp 2.1*.
Screening COc1ccc(-n2cc(C(=O)NCCN3CCc4ccccc4C3)c3ccccc3c2=O)cc1 returned GIV Gai3 FP 105, Sa growth 42C 124 and Sa growth 42C second temp 64.
Screening COc1ccc(NC(=O)CSc2nccn2Cc2ccc3c(c2)OCO3)cc1 returned GIV Gai3 FP 98, Sa growth 42C 89 and Sa growth 42C second temp 87.
For CNC(=O)c1nn(-c2ccc(C)cc2)nc1CO the results were GIV Gai3 FP 102 and HCMV UL50-53 inh -3.
Cc1sc2c(c1C)CN(C(C)(C)C)CN2C(=O)c1ccccc1 was read as GIV Gai3 FP 98, Sa growth 42C 107 and Sa growth 42C second temp 86.
Screening CN(C)S(=O)(=O)c1ccc(C(=O)NCC2CCCO2)cc1 (stereo not drawn) returned HCMV UL50-53 inh -4, Sa growth 42C 101 and Sa growth 42C second temp 96.
Screening COc1ccc(-c2cc(C(=O)N3CC(C)OC(C)C3)c3ccccc3n2)cc1OC (stereo not drawn) returned HCMV UL50-53 inh -46, Sa growth 42C 90 and Sa growth 42C second temp 92.
CCCc1cc(Sc2ccc(NC(=O)c3ccccc3OC)cc2)n2ncnc2n1 was read as GIV Gai3 FP 104 and HCMV UL50-53 inh -10.
`COC(=O)c1ccc(C(=O)Nc2cc(Cl)ccc2Cl)cc1N` gave HCMV UL50-53 inh -27, Sa growth 42C 118 and Sa growth 42C second temp 78.
Screening CCc1cc(=O)oc2c(C)c(OC)ccc12 returned GIV Gai3 FP 97, Sa growth 42C 99 and Sa growth 42C second temp 76.
For COc1ccc(CNc2nc3nc4c(c(=O)n3[nH]2)CCC4)cc1OC the results were GIV Gai3 FP 95, Sa growth 42C 90 and Sa growth 42C second temp 94.
For CCn1c(C(=O)O)c(CC(=O)NC2CCCCCC2)c2ccccc21 the results were GIV Gai3 FP 97, Sa growth 42C 129 and Sa growth 42C second temp 82.
For COc1ccc2c(c1)CCc1sc(NC(=O)c3ccco3)nc1-2 the results were GIV Gai3 FP 104, HCMV UL50-53 inh -5, Sa growth 42C 56 and Sa growth 42C second temp 39.
COc1ccc(C(c2nnnn2CC2CCCO2)N2CCN(c3ccc(F)cc3)CC2)cc1OC (stereo not drawn) was read as GIV Gai3 FP 105, HCMV UL50-53 inh 20, Sa growth 42C 99 and Sa growth 42C second temp 121.
`COc1cccc(-c2nn(C)c3sc(C(=O)N4CCN(c5cccc(C(F)(F)F)c5)CC4)cc23)c1` gave GIV Gai3 FP 104, HCMV UL50-53 inh -35, Sa growth 42C 92 and Sa growth 42C second temp 93.
`CCCCNC(=O)c1cc(-c2ccccc2F)nc2n[nH]c(-c3cccc(OC)c3)c12` gave GIV Gai3 FP 104 and HCMV UL50-53 inh 5.
Screening CCOc1cc2c(cc1OCC)C(c1c(F)cccc1Cl)CC(=O)N2 (stereo not drawn) returned GIV Gai3 FP 103, HCMV UL50-53 inh -1, Sa growth 42C 116 and Sa growth 42C second temp 92.
O=C(N=S1CCN(c2ncc(C(F)(F)F)cc2Cl)CC1)Nc1ccc(Cl)cc1 was read as GIV Gai3 FP 100, HCMV UL50-53 inh -39, Sa growth 42C 104 and Sa growth 42C second temp 85.
`CN(C(=O)c1cc(Cl)cc(Cl)c1)C1CCCCC1` gave GIV Gai3 FP 107, HCMV UL50-53 inh -1, Sa growth 42C 106 and Sa growth 42C second temp 89.
`COc1cc2c(C(=O)N3CCN(c4ccc(C)cc4)C(C)C3)cn(CC(C)C)c(=O)c2cc1OC` (stereo not drawn) gave GIV Gai3 FP 106, HCMV UL50-53 inh -7, Sa growth 42C 97 and Sa growth 42C second temp 82.
Nc1ccc2nc(SCc3ccccc3Cl)sc2c1 was read as GIV Gai3 FP 108, Sa growth 42C 78 and Sa growth 42C second temp 48.
For COc1ccc(C2=NN(C(=O)c3cccnc3)C(c3ccccc3O)C2)cc1 (stereo not drawn) the results were HCMV UL50-53 inh -18, Sa growth 42C 97 and Sa growth 42C second temp 53.
Screening CCN1CCN(C(=O)c2ccc3c(c2)N(Cc2ccccc2)C(=O)c2ccccc2S3(=O)=O)CC1 returned GIV Gai3 FP 111, HCMV UL50-53 inh -6, Sa growth 42C 87 and Sa growth 42C second temp 98.
Screening COC(=O)C1c2sc(=O)[nH]c2SC2C(=O)N(c3ccc(Br)cc3)C(=O)C21 (stereo not drawn) returned HCMV UL50-53 inh -3, Sa growth 42C 67 and Sa growth 42C second temp 56.
Screening COc1ccc(CCNC(=O)Cn2c(SCc3ccc(C)cc3)nc3cccnc32)cc1OC returned GIV Gai3 FP 100, Sa growth 42C 101 and Sa growth 42C second temp 87.
O=C1CCC2C(=O)N(CC(=O)N3CCCC3)C(=O)C2C1 (stereo not drawn) was read as GIV Gai3 FP 101 and HCMV UL50-53 inh -33.
`Cc1cccc(NC(=O)CSc2ccc(-c3ccccn3)nn2)c1` gave GIV Gai3 FP 108, Sa growth 42C 72 and Sa growth 42C second temp 63.
CCOC(=O)c1c(NC(=O)C(C)Sc2cn(CCNC(=O)c3ccc(OC)c(OC)c3)c3ccccc23)sc2c1CCC2 (stereo not drawn) was read as GIV Gai3 FP 97, HCMV UL50-53 inh 10, Sa growth 42C 94 and Sa growth 42C second temp 95.
For C(=N\n1cnnc1)/c1nc2ccccc2n1Cc1ccccc1 the results were HCMV UL50-53 inh -62, Sa growth 42C 108 and Sa growth 42C second temp 81.
For CCOC(=O)c1nnn2c1nc(SCC(N)=O)c1ccccc12 the results were GIV Gai3 FP 100, HCMV UL50-53 inh -15, Sa growth 42C 100 and Sa growth 42C second temp 82.
COc1ccc(S(=O)(=O)N(C)c2ccc(OCC(=O)Nc3cc(C)on3)cc2)cc1 was read as HCMV UL50-53 inh -17, Sa growth 42C 85 and Sa growth 42C second temp 85.
Screening COc1ccc(C(=O)NC(C(=O)N2CCN(c3ccccc3O)CC2)C(C)C)cc1 (stereo not drawn) returned HCMV UL50-53 inh -6, Sa growth 42C 102 and Sa growth 42C second temp 95.
`O=S(=O)(c1cccc(C(F)(F)F)c1)N(CCCN1CCOCC1)Cc1cccs1` gave GIV Gai3 FP 108, Sa growth 42C 101 and Sa growth 42C second temp 85.
Screening COC(=O)c1ccc(OCC2c3cc(OC)c(OC)cc3CCN2C(=O)c2ccc(OC)cc2)cc1 (stereo not drawn) returned GIV Gai3 FP 100, Sa growth 42C 73 and Sa growth 42C second temp 78.
For O=C(Oc1cccc(-c2cnc3ccccc3n2)c1)c1ccco1 the results were HCMV UL50-53 inh -10, Sa growth 42C 110 and Sa growth 42C second temp 101.
For Fc1ccc(NC(=S)N2CCCCC2CCN2CCOCC2)cc1 (stereo not drawn) the results were GIV Gai3 FP 106, HCMV UL50-53 inh -26, Sa growth 42C 115 and Sa growth 42C second temp 84.
`COc1ccc(Cl)cc1C(=O)Nc1ccc(-c2nnc3n2CCCCC3)cc1` gave GIV Gai3 FP 99, Sa growth 42C 86 and Sa growth 42C second temp 81.
For Cc1ccc(NC(=O)CSc2cn(CC(=O)N3CCC(C)CC3)c3ccccc23)cc1 the results were GIV Gai3 FP 105 and HCMV UL50-53 inh -10.

Structural class: the entries above containing a Cl atom
Screening O=C(Cc1csc2ccc(Cl)cc12)OCc1ccccc1 returned GIV Gai3 FP 101, HCMV UL50-53 inh 3, Sa growth 42C 93 and Sa growth 42C second temp 98.
For NC(=O)COC(=O)/C=C/c1ccc(Cl)cc1 the results were HCMV UL50-53 inh -39, Sa growth 42C 116 and Sa growth 42C second temp 102.
`COC(=O)c1ccc(C(=O)Nc2cc(Cl)ccc2Cl)cc1N` gave HCMV UL50-53 inh -27, Sa growth 42C 118 and Sa growth 42C second temp 78.
Screening CCOc1cc2c(cc1OCC)C(c1c(F)cccc1Cl)CC(=O)N2 (stereo not drawn) returned GIV Gai3 FP 103, HCMV UL50-53 inh -1, Sa growth 42C 116 and Sa growth 42C second temp 92.
O=C(N=S1CCN(c2ncc(C(F)(F)F)cc2Cl)CC1)Nc1ccc(Cl)cc1 was read as GIV Gai3 FP 100, HCMV UL50-53 inh -39, Sa growth 42C 104 and Sa growth 42C second temp 85.
`CN(C(=O)c1cc(Cl)cc(Cl)c1)C1CCCCC1` gave GIV Gai3 FP 107, HCMV UL50-53 inh -1, Sa growth 42C 106 and Sa growth 42C second temp 89.
Nc1ccc2nc(SCc3ccccc3Cl)sc2c1 was read as GIV Gai3 FP 108, Sa growth 42C 78 and Sa growth 42C second temp 48.
`COc1ccc(Cl)cc1C(=O)Nc1ccc(-c2nnc3n2CCCCC3)cc1` gave GIV Gai3 FP 99, Sa growth 42C 86 and Sa growth 42C second temp 81.

Compound activity: PubChem BioAssay, ICCB-Longwood Screening Facility, Harvard Medical School
